RVFV N-RNA inh: inhibitors of Rift Valley Fever Virus nucleocapsid-RNA interaction. P21700. 20,000 tested, 0.1% active. % bound, % (concentration not given with the values). RVFV N-RNA binding, fluorescence polarization; active compounds read low;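 active = between 0 and 58% in either replicate with normal brightness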;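 note: 100 nL library stock added to about 12 µL; 100% = protein and probe without compound and 0% = probe alone; numbers are from one replicate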
Target sequence (P21700 whole entry, looked up): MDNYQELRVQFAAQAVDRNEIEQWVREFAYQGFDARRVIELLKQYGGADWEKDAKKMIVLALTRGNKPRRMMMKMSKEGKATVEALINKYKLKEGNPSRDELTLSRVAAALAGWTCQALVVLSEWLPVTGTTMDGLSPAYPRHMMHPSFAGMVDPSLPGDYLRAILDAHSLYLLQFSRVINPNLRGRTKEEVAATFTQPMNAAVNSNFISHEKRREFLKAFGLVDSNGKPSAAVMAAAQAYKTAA
* marks the source's active call; other numbers are inactive results; & = joins results of further samples. Some of the compounds tested, so the mix of outcomes need not match the whole.

NC(=O)c1ncn([C@@H]2O[C@H](CO)[C@@H](O)[C@H]2O)c1O
  RVFV N-RNA inh: 95.2
CC(=O)N1CCN(C2c3cccc4cccc(c34)C2NS(=O)(=O)c2ccccc2)CC1 (stereo unspecified)
  RVFV N-RNA inh: 89.7
COc1cccc(C(=O)Nc2cccc(-c3ccc(N4CCN(C)CC4)nn3)c2)c1
  RVFV N-RNA inh: 87.2
CSc1ccc(S(=O)(=O)N2CCC(C(N)=O)CC2)cc1
  RVFV N-RNA inh: 94.5
COc1ccc(C(=O)N2CCN(c3ncnc4c3nnn4-c3ccc(F)cc3)CC2)cc1OC
  RVFV N-RNA inh: 87.3
CS(=O)(=O)N1CCCC(C(=O)Nc2ccccc2)C1 (stereo unspecified)
  RVFV N-RNA inh: 93.0
Cc1cccc(Cl)c1NC(=O)N1CCCN(c2ccc(C(F)(F)F)cn2)CC1
  RVFV N-RNA inh: 81.8
OCC1CCCN(C(=S)NCCc2ccccc2)C1 (stereo unspecified)
  RVFV N-RNA inh: 94.5
NCCCNCCSP(=O)(O)O
  RVFV N-RNA inh: 91.2&95.9
Oc1cccc(C=Nc2ccc(OC(F)(F)F)cc2)c1O
  RVFV N-RNA inh: 86.6

Among those listed so far, 3 contain four or more nitrogen atoms:
COc1cccc(C(=O)Nc2cccc(-c3ccc(N4CCN(C)CC4)nn3)c2)c1
  RVFV N-RNA inh: 87.2
COc1ccc(C(=O)N2CCN(c3ncnc4c3nnn4-c3ccc(F)cc3)CC2)cc1OC
  RVFV N-RNA inh: 87.3
Cc1cccc(Cl)c1NC(=O)N1CCCN(c2ccc(C(F)(F)F)cn2)CC1
  RVFV N-RNA inh: 81.8

Part of the list above in order of length of the SMILES, descending.
CC(=O)N1CCN(C2c3cccc4cccc(c34)C2NS(=O)(=O)c2ccccc2)CC1 (stereo unspecified)
  RVFV N-RNA inh: 89.7
COc1cccc(C(=O)Nc2cccc(-c3ccc(N4CCN(C)CC4)nn3)c2)c1
  RVFV N-RNA inh: 87.2
NC(=O)c1ncn([C@@H]2O[C@H](CO)[C@@H](O)[C@H]2O)c1O
  RVFV N-RNA inh: 95.2
OCC1CCCN(C(=S)NCCc2ccccc2)C1 (stereo unspecified)
  RVFV N-RNA inh: 94.5

(more compounds)
CCNS(=O)(=O)c1ccc(NC(=O)Nc2cccc(OC)c2)cc1
  RVFV N-RNA inh: 95.6
C=CCN1C(=O)CC(Nc2ccc(F)cc2)C1=O (stereo unspecified)
  RVFV N-RNA inh: 99.7
COc1ccc(-c2cc(C(=O)NCc3cccs3)c(C(F)(F)F)o2)cc1
  RVFV N-RNA inh: 91.7
COc1ccc(C)cc1S(=O)(=O)N(C)CC(N)=O
  RVFV N-RNA inh: 93.8
Cc1nc2ccc(NC(=O)C3CCCN3S(=O)(=O)c3cccs3)cc2s1 (stereo unspecified)
  RVFV N-RNA inh: 90.7
N#CCO/N=C(\c1ccccc1)c1ccncc1
  RVFV N-RNA inh: 86.9
O=C(/C=C1\SC(=O)NC1=O)Nc1ccccc1C(=O)O
  RVFV N-RNA inh: 102.2
COc1ccc(N=Cc2ccc(-c3ccccc3)o2)cc1
  RVFV N-RNA inh: 95.4
Cn1c(O)c(C=Nc2ccccc2)c(=O)[nH]c1=S
  RVFV N-RNA inh: 113.2
CC(C)CC(=O)Nc1ccc(-c2cn3cccnc3n2)cc1
  RVFV N-RNA inh: 92.2

Cc1cc(C(=O)N2CCCCC2)c2cc(F)ccc2n1
  RVFV N-RNA inh: 100.4
O=C(NCc1csc(-c2cccs2)n1)c1ccsc1
  RVFV N-RNA inh: 111.3
c1ccc(CN2CCCC(c3nc4ccccc4[nH]3)C2)cc1 (stereo unspecified)
  RVFV N-RNA inh: 97.5
Cc1nc(Cc2nc3ccccc3n2Cc2ccccc2F)no1
  RVFV N-RNA inh: 94.1
CNCCC(Oc1ccccc1OC)c1ccccc1 (stereo unspecified)
  RVFV N-RNA inh: 98.4&91.2
COc1cccc(N2C(=O)c3ccc(C(=O)Nc4c[nH]c(=O)[nH]c4=O)cc3C2=O)c1
  RVFV N-RNA inh: 94.7
CN(C(=O)Nc1cnccc1C(F)(F)F)C1CCCCC1
  RVFV N-RNA inh: 98.5
O=C(Nc1ccon1)c1cc2ccccc2oc1=O
  RVFV N-RNA inh: 93.0
Cc1nnc(NC(=O)CSc2nnc(CNC(=O)C34CC5CC(CC(C5)C3)C4)n2-c2ccccc2)s1
  RVFV N-RNA inh: 101.2
CCOC(=O)c1c(C)c(C(=O)N2CCCC2)c(C)n1CC
  RVFV N-RNA inh: 95.9

Two compounds picked at random from the list so far:
COc1cccc(C(=O)Nc2cccc(-c3ccc(N4CCN(C)CC4)nn3)c2)c1
  RVFV N-RNA inh: 87.2
COc1ccc(C)cc1S(=O)(=O)N(C)CC(N)=O
  RVFV N-RNA inh: 93.8

(further entries)
O=C(c1ccco1)N(Cc1ccco1)C1CCS(=O)(=O)C1 (stereo unspecified)
  RVFV N-RNA inh: 92.1
Cc1nc(-c2noc(-c3ccc(Cl)cc3)n2)c(C(F)(F)F)o1
  RVFV N-RNA inh: 100.0
CCN(c1nc(N)c(C(=O)N=C(N)N)nc1Cl)C(C)C
  RVFV N-RNA inh: 94.6
CCOC(=O)Nc1cc(C)ccc1OC
  RVFV N-RNA inh: 99.4
CCCCS(=O)(=O)c1nc2c(cc1C#N)CCCC2
  RVFV N-RNA inh: 98.8
COC(=O)c1ccc(-c2nc(-c3ccccc3)no2)cc1
  RVFV N-RNA inh: 102.2
CCC(CC)C(=O)Nc1cccc(C(=O)Nc2ccc3c(c2)OCCO3)c1
  RVFV N-RNA inh: 92.2
O=C(OCc1ccc(Cl)cc1Cl)C(O)c1ccccc1 (stereo unspecified)
  RVFV N-RNA inh: 97.5
COc1ccc(S(=O)(=O)N(C)c2ccc(C(=O)N3CCCCC3)cc2)cc1
  RVFV N-RNA inh: 91.8
COc1ccc(CCNC(C)=O)cc1
  RVFV N-RNA inh: 96.4

CCOC(=O)c1oc2ccccc2c1NC(=S)NC(=O)CN1C(=O)CCC1=O
  RVFV N-RNA inh: 97.3
O=C1Cc2ccccc2C(=O)N1CCc1ccccc1
  RVFV N-RNA inh: 97.2
CC1=NN(C(=O)C2CCCCC2)C(O)(c2ccccc2)C1 (stereo unspecified)
  RVFV N-RNA inh: 89.7
Cc1ccc(NC(=O)C23CCC(C2)C(C)(C)C3=O)c(C)c1 (stereo unspecified)
  RVFV N-RNA inh: 109.4
O=C(COc1ccc2c(c1)CCC2)NN1CCOCC1
  RVFV N-RNA inh: 95.5
CCOC(=O)C1CC(=O)OC12CCCCC2 (stereo unspecified)
  RVFV N-RNA inh: 101.2
O=C(Nc1nc2ccccc2s1)c1ccc(S(=O)(=O)N2CCOCC2)cc1
  RVFV N-RNA inh: 89.5
COc1ccc(OC)c2[nH]c(=O)c(CCNC(=O)C(C)C)cc12
  RVFV N-RNA inh: 97.6
O=S(=O)(NNc1ccccc1)c1cccs1
  RVFV N-RNA inh: 91.7
CC1CCN(c2ccc(N3CCN(S(C)(=O)=O)CC3)nn2)CC1
  RVFV N-RNA inh: 87.0

Cc1nc(C)c(-c2ccn[nH]2)s1
  RVFV N-RNA inh: 89.9
CN1CCN(CCOCCOc2ccc(Cl)c(Cl)c2)CC1
  RVFV N-RNA inh: 100.8
c1ccc(-c2ccc(C(c3ccccc3)n3ccnc3)cc2)cc1 (stereo unspecified)
  RVFV N-RNA inh: 99.8&92.3
O=C1CCCC(O)=C1N=Nc1cc(C(F)(F)F)ccc1OCC(F)(F)F
  RVFV N-RNA inh: 80.4
C=CCN(CC=C)S(=O)(=O)c1ccc(NC(=O)c2cccs2)cc1
  RVFV N-RNA inh: 102.6
COCCCOc1ccnc(CS(=O)c2nc3ccccc3[nH]2)c1C (stereo unspecified)
  RVFV N-RNA inh: 85.3
Clc1cccc(-c2nnc(-c3ccccc3)o2)c1
  RVFV N-RNA inh: 94.2
Cc1ccc(C)c(OCC(=O)Nc2ccccc2C#N)c1
  RVFV N-RNA inh: 96.8
Nc1cc(-c2ccccc2)[nH]n1
  RVFV N-RNA inh: 94.5
NNC(=S)Nc1ccc(C(F)(F)F)cc1Cl
  RVFV N-RNA inh: 93.4

C=CCNC(=O)C(C)(C)Oc1ccc(Cl)cc1
  RVFV N-RNA inh: 101.4
O=C(/C=C/c1ccco1)Nc1cccc(C(F)(F)F)c1
  RVFV N-RNA inh: 92.0
Cc1cc(C(=O)NCc2ccc(N3CCN(C)CC3)cc2)nn1C
  RVFV N-RNA inh: 101.7
Cc1cnc(NS(=O)(=O)c2cccc3nonc23)c(Br)c1
  RVFV N-RNA inh: 98.5
COCC(C)NC(=O)Nc1c[nH]c2ccccc12 (stereo unspecified)
  RVFV N-RNA inh: 95.0
CSc1sc(C(=O)NC(=O)NCc2cccnc2)c(C)c1-c1ccon1
  RVFV N-RNA inh: 93.2
C[C@]12CC=C(C#N)[C@@]1(C)CC=C2C#N
  RVFV N-RNA inh: 97.9
N[C@@H](C(=O)N[C@@H]1C(=O)N2C(C(=O)O)=C(Cl)CS[C@H]12)c1ccccc1
  RVFV N-RNA inh: 101.7

Not a retest: six of the compounds above.
Cc1cc(C(=O)NCc2ccc(N3CCN(C)CC3)cc2)nn1C
  RVFV N-RNA inh: 101.7
Cc1cnc(NS(=O)(=O)c2cccc3nonc23)c(Br)c1
  RVFV N-RNA inh: 98.5
COCC(C)NC(=O)Nc1c[nH]c2ccccc12 (stereo unspecified)
  RVFV N-RNA inh: 95.0
CSc1sc(C(=O)NC(=O)NCc2cccnc2)c(C)c1-c1ccon1
  RVFV N-RNA inh: 93.2
C[C@]12CC=C(C#N)[C@@]1(C)CC=C2C#N
  RVFV N-RNA inh: 97.9
N[C@@H](C(=O)N[C@@H]1C(=O)N2C(C(=O)O)=C(Cl)CS[C@H]12)c1ccccc1
  RVFV N-RNA inh: 101.7

High-throughput results (PubChem)
